Screening results deposited in PubChem by National Center for Advancing Translational Sciences (NCATS).
PINK1 expr mod: PINK1 expression modulation; PINK1 immunofluorescence, high-content cytometry, 24 h; 410,000 compounds, 0.2% hits; AID 624263; Potency, µM (doses to about 76.6 µM), for inactives: top-dose activation (PINK1 increase), most hits filed as activators; active = well fitted activation curve with a large enough effect; inconclusive = small, poorly fitted or top-dose-only effect; inactive = flat fitted curve, though single readings scatter; cell line not stated here;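 note: potency is the fitted concentration of half-maximal effect; % of control where 0% means no effect; nearly all actives have a fitted effect of over 65% in size; a mitochondrial uncoupler was the plate control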
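PINK1 protein level read as immunofluorescence by microplate cytometer in a fixed, stained stable cell line after 24 h exposure to five compound concentrations, with CCCP as control.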
D2 ag: activates the human D2 dopamine receptor; P14416; DiscoveRx PathHunter D2 beta-arrestin, luminescence, 90 min; 100% = 57 uM dopamine signal; activation, % (no concentration beside the values); 360,000 compounds, 0.084% hits; AID 624465; in the data active = activation above about 40%; inconclusive = about 15% to 40%; inactive = below about 15%; note: compound concentration not given in the record; the text of the record calls up to 30% inactive
Target sequence (P14416 whole entry, looked up): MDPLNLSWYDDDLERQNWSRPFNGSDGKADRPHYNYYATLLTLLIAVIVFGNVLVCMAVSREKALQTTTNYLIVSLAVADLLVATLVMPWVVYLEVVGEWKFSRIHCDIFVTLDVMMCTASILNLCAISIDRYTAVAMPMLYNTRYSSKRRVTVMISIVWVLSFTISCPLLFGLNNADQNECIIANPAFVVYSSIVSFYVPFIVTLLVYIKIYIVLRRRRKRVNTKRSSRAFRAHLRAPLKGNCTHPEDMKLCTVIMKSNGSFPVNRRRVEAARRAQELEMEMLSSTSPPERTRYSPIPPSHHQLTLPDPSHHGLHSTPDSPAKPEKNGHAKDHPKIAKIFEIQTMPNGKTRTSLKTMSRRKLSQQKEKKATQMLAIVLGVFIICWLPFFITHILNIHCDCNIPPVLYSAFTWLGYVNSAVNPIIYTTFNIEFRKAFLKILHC
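Agonist mode: compounds alone added to overnight-plated D2 PathHunter cells for 90 min at 37 C, with 57 uM final dopamine (EC100) defining full response. Beta-arrestin recruitment detected by chemiluminescent reagent, read after 1 h at ambient temperature.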
Six1-Eya2 blk: blocks human Six1 binding to Eya2; Q15475+O00167; AlphaScreen GST-Six1/His-Eya2 binding, biochemical; hits give low values; control for the full effect not named in the record; 360,000 compounds, 0.56% hits; activity change, % (no concentration beside the values); in the data active = activity change below about -65%; inconclusive = about -30% to -65%; inactive = above about -30%; note: % is set by controls: 0 for no effect and ±100 for the full control effect
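AlphaScreen with GST-Six1 and His-Eya2 (5X mix: 250 nM and 500 nM), glutathione donor and nickel acceptor beads; buffer 50 mM Tris pH 8.0, 300 mM NaCl, 1 mM TCEP; 1 h at 37 C in the dark.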
D2 PAM: potentiates the human D2 dopamine receptor allosterically | 360,000 compounds, 0.23% hits | potentiation, % (no concentration beside the values) | P14416 | DiscoveRx D2 beta-arrestin cells, luminescence, 90 min; 100% = 57 uM dopamine signal; active = potentiation of 50% or more; inconclusive = 30% to 50%; inactive = 30% or less;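 note: compound concentration not given in the record; tested on top of an EC20 dose of dopamine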
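D2 cells co-treated with compound plus 50 nM dopamine (EC20) for 90 min at 37 deg C to detect potentiation. Beta-arrestin recruitment was read as enzyme-fragment luminescence after 1 h at ambient temperature. Full response was set by 57 uM dopamine.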
CtBP-E1A inh: CtBP/E1A binding inhibition. activity change, % (concentration not given with the values). AlphaScreen GST-E1A/His-CtBP binding, 1536-well; hits give low values; control for the full effect not named in the record. 340,000 compounds, 0.49% hits; in the data active means activity change below about -65%; inconclusive means about -30% to -65%; inactive means above about -30%; note: % is set by controls: 0 for no effect and ±100 for the full control effect
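AlphaScreen with 125 nM GST-E1A and 125 nM His-CtBP (5X stocks) in Tris pH 8.0, 300 mM NaCl, BSA, Tween 20, TCEP. Compounds preincubated 2 h at 37 deg C, then glutathione donor/nickel acceptor beads added for 1 h at 37 deg C in dark.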
TRPML1 agonist: agonists of human TRPML1 channel | Q9GZU1 | TRPML1-expressing cells, Ca2+ dye fluorescence, FDSS; host cell line not named in the record; reference of the full effect not given here | activation, % (test concentration not listed) | 410,000 compounds, 0.12% hits | AID 624414; in the data active = activation above about 50%; inconclusive = about 30% to 50%; inactive = below about 30%; note: 0% is about no effect; the text of the record puts the active cut at 80%
Target sequence (Q9GZU1 whole entry, looked up): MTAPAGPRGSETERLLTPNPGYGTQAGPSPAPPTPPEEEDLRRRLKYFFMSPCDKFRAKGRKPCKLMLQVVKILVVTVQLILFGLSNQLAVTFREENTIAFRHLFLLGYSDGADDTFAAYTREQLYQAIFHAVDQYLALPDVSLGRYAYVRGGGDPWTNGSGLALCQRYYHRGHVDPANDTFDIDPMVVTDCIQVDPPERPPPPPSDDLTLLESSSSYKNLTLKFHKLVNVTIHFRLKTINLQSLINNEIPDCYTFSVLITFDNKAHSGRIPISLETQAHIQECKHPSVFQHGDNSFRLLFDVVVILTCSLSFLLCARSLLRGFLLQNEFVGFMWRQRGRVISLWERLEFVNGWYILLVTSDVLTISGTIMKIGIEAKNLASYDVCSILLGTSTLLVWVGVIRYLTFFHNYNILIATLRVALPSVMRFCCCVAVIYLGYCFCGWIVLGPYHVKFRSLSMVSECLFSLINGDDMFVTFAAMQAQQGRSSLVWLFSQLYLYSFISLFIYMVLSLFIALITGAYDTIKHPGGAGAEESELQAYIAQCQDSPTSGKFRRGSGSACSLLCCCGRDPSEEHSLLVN
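In this qHTS format, compounds were pin-transferred onto Ca8-dye-loaded TRPML1-DL cells induced with Tet overnight, and intracellular Ca2+ fluorescence was recorded kinetically for 110 s after a 10 s baseline. A subsequent 4uM final 54-4 (EC80) addition followed by a second 110 s read served as the antagonist phase.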
An asterisk follows results filed as active; [ ] = remark or other dose.

Screening CC(NC(=O)c1cc(-c2ccc(Br)cc2)on1)c1ccccc1 (configuration not stated) returned PINK1 expr mod inconclusive, D2 ag 1.1, Six1-Eya2 blk 5, D2 PAM 4, CtBP-E1A inh 2 and TRPML1 agonist 0.2.
Screening Cc1c(NS(=O)(=O)c2ccc(Br)cc2)c(=O)n(-c2ccccc2)n1C returned PINK1 expr mod -1.0%, D2 ag -1.9, Six1-Eya2 blk -1 and D2 PAM 19.
CC(=O)c1ccc(NC(=O)C(C)Nc2ccc(Cl)cc2)cc1 (configuration not stated) was read as PINK1 expr mod 0.2%, D2 ag -3.2, Six1-Eya2 blk 4, D2 PAM -4, CtBP-E1A inh -2 and TRPML1 agonist 0.1.
C=CCc1ccc(OCCn2nnc3ccccc32)c(OC)c1 was read as PINK1 expr mod -1.4%, D2 ag 0.3, Six1-Eya2 blk 2, D2 PAM 0, CtBP-E1A inh 4 and TRPML1 agonist 4.8.
`COC(=O)/N=C/c1c(NCc2ccccc2)nc2c(C)cccn2c1=O` gave PINK1 expr mod 2.4%, D2 ag 1.2, Six1-Eya2 blk 2, D2 PAM -8, CtBP-E1A inh 9 and TRPML1 agonist -0.5.
Screening CC(CNC(=O)COC(=O)c1cccs1)c1ccccc1 (configuration not stated) returned PINK1 expr mod -0.2%, D2 ag -1.4, Six1-Eya2 blk 3, D2 PAM -6, CtBP-E1A inh 2 and TRPML1 agonist 1.7.
C/C(=N\NC(=O)c1nn(C)c(C)c1Br)c1ccc(NC(=O)c2ccoc2C)cc1 was read as PINK1 expr mod inconclusive, D2 ag -4.3, Six1-Eya2 blk -5, D2 PAM 2, CtBP-E1A inh -1 and TRPML1 agonist -0.6.
O=C(Nc1ccc(Br)cc1)/C(=C/c1cccc([N+](=O)[O-])c1)NC(=O)C1CCCCC1 was read as PINK1 expr mod -3.1%[38.3 µM], D2 ag -4.3, Six1-Eya2 blk -2, D2 PAM -20, CtBP-E1A inh 3 and TRPML1 agonist 1.9.
`NC(=O)C1CCCN(C(=O)CCc2nnc(C3(c4ccc(Cl)cc4)CCC3)o2)C1` (configuration not stated) gave PINK1 expr mod 2.3%, D2 ag -0.7, Six1-Eya2 blk 2, D2 PAM -2, CtBP-E1A inh -4 and TRPML1 agonist -0.4.
Cc1c(NCc2cc(Cl)ccc2O)c(=O)n(-c2ccccc2)n1C was read as PINK1 expr mod -0.5%, D2 ag 1.6, Six1-Eya2 blk -2, D2 PAM 21, CtBP-E1A inh 5 and TRPML1 agonist -0.8.
`Cc1nc(Cc2nnc(SC(C)C(=O)Nc3cccc(C#N)c3)o2)cs1` (configuration not stated) gave PINK1 expr mod -1.6%, D2 ag -2.5, Six1-Eya2 blk 0, D2 PAM -2, CtBP-E1A inh -8 and TRPML1 agonist -0.5.
For O=[N+]([O-])c1ccc(S(=O)(=O)N/N=C/c2cccs2)cc1 the results were PINK1 expr mod -0.7%, D2 ag -5.3, Six1-Eya2 blk 7, D2 PAM -5, CtBP-E1A inh -3 and TRPML1 agonist -0.7.
For CC1(C)OC(=O)N(CCc2ccccc2)C1(C)O (configuration not stated) the results were PINK1 expr mod 78%[38.3 µM], D2 ag -5.2, Six1-Eya2 blk 3, D2 PAM -17, CtBP-E1A inh 0 and TRPML1 agonist -0.9.
Screening Cc1ccccc1C=Nc1ccccc1C(N)=O returned PINK1 expr mod 11%, D2 ag -3.0, Six1-Eya2 blk 3, D2 PAM -8, CtBP-E1A inh -7 and TRPML1 agonist 0.4.
`Cc1cc(S(=O)(=O)N2CCCCC2)c(C)s1` gave PINK1 expr mod 1.8%, D2 ag -3.3, Six1-Eya2 blk -1, D2 PAM 2 and TRPML1 agonist 0.8.
`CC(C)(C)N1CC(C(=O)Nc2ccc(C#N)cc2)CC1=O` (configuration not stated) gave PINK1 expr mod 1.5%, D2 ag -4.7, Six1-Eya2 blk -18, D2 PAM -3, CtBP-E1A inh -13 and TRPML1 agonist 0.1.
CC(=O)OCCCNc1cc(SCc2ccco2)c2nonc2c1[N+](=O)[O-] was read as PINK1 expr mod 0.3%, D2 ag -0.6, Six1-Eya2 blk inconclusive, D2 PAM -19, CtBP-E1A inh -11 and TRPML1 agonist 1.2.
`O=C(N/C(=C/c1ccc(Cl)cc1)c1nc2ccccc2[nH]1)c1ccco1` gave PINK1 expr mod 7.2%, D2 ag -2.8, Six1-Eya2 blk 3, D2 PAM -21, CtBP-E1A inh -12 and TRPML1 agonist -0.5.
`O=c1cc(-c2ccccc2)cc(-c2ccccc2)n1O` gave PINK1 expr mod 0.7%, D2 ag 0.8, Six1-Eya2 blk -22, D2 PAM 7, CtBP-E1A inh inconclusive and TRPML1 agonist -0.3.
`COCCn1c(C)c(C(=O)O)sc1=S` gave PINK1 expr mod 4.6%, D2 ag -3.8, Six1-Eya2 blk 14, D2 PAM -8, CtBP-E1A inh 3 and TRPML1 agonist 0.0.

Fetched by structure from above, 3 records:
Screening CC(CNC(=O)COC(=O)c1cccs1)c1ccccc1 (configuration not stated) returned PINK1 expr mod -0.2%, D2 ag -1.4, Six1-Eya2 blk 3, D2 PAM -6, CtBP-E1A inh 2 and TRPML1 agonist 1.7.
`Cc1nc(Cc2nnc(SC(C)C(=O)Nc3cccc(C#N)c3)o2)cs1` (configuration not stated) gave PINK1 expr mod -1.6%, D2 ag -2.5, Six1-Eya2 blk 0, D2 PAM -2, CtBP-E1A inh -8 and TRPML1 agonist -0.5.
For O=[N+]([O-])c1ccc(S(=O)(=O)N/N=C/c2cccs2)cc1 the results were PINK1 expr mod -0.7%, D2 ag -5.3, Six1-Eya2 blk 7, D2 PAM -5, CtBP-E1A inh -3 and TRPML1 agonist -0.7.

More results.
COCc1c(C(=O)NCCOc2ccc(Cl)cc2)oc2ccccc12 was read as PINK1 expr mod 5.0%, D2 ag 2.8, Six1-Eya2 blk 4, D2 PAM -9 and TRPML1 agonist 0.0.
`O=C(COc1c(CO)cc(Br)cc1CO)NC1CCCc2ccccc21` (configuration not stated) gave PINK1 expr mod -0.5%, D2 ag -2.5, Six1-Eya2 blk 13, D2 PAM 12, CtBP-E1A inh 24 and TRPML1 agonist -0.9.
For Cc1ccc(NS(=O)(=O)c2cc3c4c(c2)CC(=O)N4CCC3)cc1C the results were PINK1 expr mod 0.5%, D2 ag 3.4, Six1-Eya2 blk -4, D2 PAM 3, CtBP-E1A inh 0 and TRPML1 agonist -0.6.
`COc1ccc(Cc2nc(C(=O)Nc3ccc(OC)cc3)cs2)cc1` gave PINK1 expr mod -1.5%, D2 ag -2.8, Six1-Eya2 blk -2, D2 PAM -3, CtBP-E1A inh 16 and TRPML1 agonist -0.1.
For O=C(Nc1c(-c2cccs2)nc2ccccn12)c1ccccc1F the results were PINK1 expr mod 0.7%, D2 ag -5.0, Six1-Eya2 blk -1, D2 PAM -10, CtBP-E1A inh -4 and TRPML1 agonist -0.1.
COC(=O)C(Cc1ccccc1)NC(=O)CNS(=O)(=O)c1ccc(Br)cc1 (configuration not stated) was read as PINK1 expr mod 0.0%, D2 ag -0.6, Six1-Eya2 blk 6, D2 PAM -12, CtBP-E1A inh 0 and TRPML1 agonist 0.6.
`CCOc1ccc(CN2CCN(Cc3ccon3)CC2CCO)cc1` (configuration not stated) gave PINK1 expr mod 2.1%, D2 ag -2.9, Six1-Eya2 blk 6, D2 PAM -12, CtBP-E1A inh 3 and TRPML1 agonist -0.1.
`CC(C)(C)C(=O)Nc1ccc(NC(=O)c2ccco2)nc1` gave PINK1 expr mod 1.4%, D2 ag 4.2, Six1-Eya2 blk 5, D2 PAM -5, CtBP-E1A inh 1 and TRPML1 agonist 1.0.
`COc1ccccc1NC(=O)CSc1nccc(-c2ccco2)n1` gave PINK1 expr mod 1.0%, D2 ag -0.4, Six1-Eya2 blk -5, D2 PAM 3, CtBP-E1A inh 3 and TRPML1 agonist 0.6.
C=CCn1c(CCNC(=O)C(C)(C)C)nc2ccccc21 was read as PINK1 expr mod -0.4%, D2 ag -3.0, Six1-Eya2 blk -1, D2 PAM -10, CtBP-E1A inh 5 and TRPML1 agonist 1.3.
`CC(=O)c1cccc(NC(=O)NNC(=O)c2ccc3ccccc3c2)c1` gave PINK1 expr mod 0.3%, D2 ag 1.5, Six1-Eya2 blk 17, D2 PAM -10, CtBP-E1A inh 4 and TRPML1 agonist -0.3.
For O=C(CN1C(=O)NC2(CCc3ccccc32)C1=O)c1ccc(Br)cc1 (configuration not stated) the results were PINK1 expr mod -4.9%, D2 ag 2.8, Six1-Eya2 blk 0, D2 PAM 15, CtBP-E1A inh -17 and TRPML1 agonist 2.2.
`COc1ccc(NC(=O)C(=O)NCc2ccncc2)c(OC)c1` gave PINK1 expr mod 1.9%, D2 ag -3.5, Six1-Eya2 blk 5, D2 PAM 1, CtBP-E1A inh 0 and TRPML1 agonist -0.5.
Screening COc1ccccc1/C=N\Nc1cc(C)nc(-n2nc(C)cc2C)n1 returned PINK1 expr mod 3.6%, D2 ag -9.4, Six1-Eya2 blk 0, D2 PAM -26, CtBP-E1A inh inconclusive and TRPML1 agonist 0.1.
O=C(CN1C(=O)c2ccccc2S1(=O)=O)Nc1ncc(Cl)cc1Cl was read as PINK1 expr mod -0.4%, D2 ag -6.2, Six1-Eya2 blk -12, D2 PAM -2, CtBP-E1A inh -11 and TRPML1 agonist 0.5.
`O=C1NCC(c2ccccc2)(c2ccccc2)C(=O)N1` gave PINK1 expr mod -0.8%, D2 ag 0.3, Six1-Eya2 blk 7, D2 PAM 3, CtBP-E1A inh -4 and TRPML1 agonist 0.6.
`CCOC(=O)c1c(S(=O)(=O)NCC(=O)Nc2cccc(F)c2)c(C)n(C)c1C` gave PINK1 expr mod 0.5%, D2 ag 3.0, Six1-Eya2 blk -1, D2 PAM -13, CtBP-E1A inh -18 and TRPML1 agonist -0.7.
For O=[N+]([O-])c1nn(-c2ccc3c(c2)OCCO3)n(O)c1=NCc1ccc(F)cc1 the results were PINK1 expr mod -2.1%, D2 ag inconclusive, Six1-Eya2 blk inconclusive, D2 PAM 143*, CtBP-E1A inh -13 and TRPML1 agonist 1.7.
Cc1ccc(NC(=O)COC(=O)CCc2ccc(S(=O)(=O)N3CCOCC3)cc2)cc1F was read as PINK1 expr mod -0.1%, D2 ag 2.0, Six1-Eya2 blk 3, D2 PAM 0, CtBP-E1A inh -22 and TRPML1 agonist -0.4.
Screening CCOC(=O)c1cc(S(=O)(=O)N2CCN(C3CCCCC3)CC2)cn1C returned PINK1 expr mod 0.5%, D2 ag 1.8, Six1-Eya2 blk 1, D2 PAM -4, CtBP-E1A inh 4 and TRPML1 agonist 1.0.
`Cc1ccc(C(=O)Nc2ccc3c(c2)ncn3C)cc1` gave PINK1 expr mod 2.7%, D2 ag -4.2, Six1-Eya2 blk -1, D2 PAM -1, CtBP-E1A inh 4 and TRPML1 agonist -0.2.
CN(C)c1nc(N)nc(-c2nc3ccccc3s2)n1 was read as PINK1 expr mod -1.9%[38.3 µM], D2 ag -1.9, Six1-Eya2 blk -1, D2 PAM -1, CtBP-E1A inh -3 and TRPML1 agonist 0.0.

Not a hit list, and some 1.3% of all compounds hit somewhere here.
